High-throughput results: PubChem BioAssay, several laboratories
T cruzi inh: blocks replication of Trypanosoma cruzi. T. cruzi beta-gal in NIH3T3, luminescence, 90 h. inhibition, % (test concentration not listed). actives 1.4% (n = 300,000);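 active = mean inhibition across valid replicates above about 55%, limit read from the data; inconclusive = mean below that limit but half or more replicates reach it; inactive = mean below it, under half of replicates reach it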;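 note: signal also drops with host cell toxicity which is not excluded here; 0% = plate median of DMSO wells and 100% = zero luminescence signal; higher percent means less beta-gal luminescence so fewer parasites; stock transfer was 50 nL into about 50 µL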
LANA-H2B inh: blocks KSHV LANA binding to histone H2A/H2B; cell-free LANA-H2A/H2B peptide, fluorescence polarization; Q9QR71; inhibition, % (no concentration beside the values); actives 0.6% (n = 320,000); in the data active = inhibition mostly above about 10%, no sharp cut-off; inactive = mostly below about 6.7%;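 note: stock transfer was 7.5 nL into about 10 µL; 0% = median of vehicle wells and 100% = median of positive control wells; one replicate is shown; the record names a cut of 25% in any replicate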
Target sequence (Q9QR71 whole entry, looked up): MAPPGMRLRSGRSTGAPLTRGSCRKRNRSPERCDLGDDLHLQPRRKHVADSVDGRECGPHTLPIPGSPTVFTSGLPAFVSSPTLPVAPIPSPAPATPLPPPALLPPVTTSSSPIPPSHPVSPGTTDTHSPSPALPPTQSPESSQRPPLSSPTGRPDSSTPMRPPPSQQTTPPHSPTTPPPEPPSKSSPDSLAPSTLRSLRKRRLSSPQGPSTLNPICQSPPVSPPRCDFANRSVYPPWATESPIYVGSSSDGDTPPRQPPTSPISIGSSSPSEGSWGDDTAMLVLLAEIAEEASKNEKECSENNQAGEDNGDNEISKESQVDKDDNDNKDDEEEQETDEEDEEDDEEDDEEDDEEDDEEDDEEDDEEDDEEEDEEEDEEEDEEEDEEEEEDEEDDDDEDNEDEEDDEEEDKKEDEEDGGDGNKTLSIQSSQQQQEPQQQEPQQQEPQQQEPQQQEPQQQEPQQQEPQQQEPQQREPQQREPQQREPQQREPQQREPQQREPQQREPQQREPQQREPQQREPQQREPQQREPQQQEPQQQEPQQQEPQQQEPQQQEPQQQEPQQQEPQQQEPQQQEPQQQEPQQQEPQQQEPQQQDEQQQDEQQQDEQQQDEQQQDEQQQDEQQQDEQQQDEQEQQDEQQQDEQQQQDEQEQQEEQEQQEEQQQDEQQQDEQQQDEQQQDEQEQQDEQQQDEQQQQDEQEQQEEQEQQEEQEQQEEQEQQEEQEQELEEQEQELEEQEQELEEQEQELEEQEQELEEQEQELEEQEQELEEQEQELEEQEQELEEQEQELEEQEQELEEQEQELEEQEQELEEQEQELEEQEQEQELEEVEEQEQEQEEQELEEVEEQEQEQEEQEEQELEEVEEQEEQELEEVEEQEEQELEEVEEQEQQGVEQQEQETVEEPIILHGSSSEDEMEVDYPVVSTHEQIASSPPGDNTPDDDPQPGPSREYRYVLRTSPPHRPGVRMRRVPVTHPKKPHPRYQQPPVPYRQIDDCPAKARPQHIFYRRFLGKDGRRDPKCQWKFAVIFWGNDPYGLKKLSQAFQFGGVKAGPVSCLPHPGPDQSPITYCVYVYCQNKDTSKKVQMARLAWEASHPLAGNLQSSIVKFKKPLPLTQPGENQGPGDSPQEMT
Beta cell apopt: blocks beta cell apoptosis. protection from apoptosis, % (concentration not given with the values). actives 0.8% (n = 300,000). INS-1E cytokine-induced death, ATP luminescence, 48 h; percent of positive-control rescue, neutral wells zero;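 active = all replicates at 75% or more, or half of them and the mean; inconclusive = half reach 75% but not the mean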;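 note: 0% = cytokine-treated negative control wells and 100% = positive control rescue; higher means more ATP so stronger rescue from cytokine killing; wells of about 40 µL received 100 nL stock; the first replicate is given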
AF4-AF9 inh: MLL-AF4/AF9 protein interaction inhibition | inhibition, % at 10 µM | actives 0.47% (n = 350,000) | AlphaScreen, biotin-AF4 peptide binding to FLAG-AF9;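 active = every replicate reaching a set inhibition limit, whatever the replicate mean, cut at about 25% in these data; inconclusive = mean inhibition reaches that limit but some replicates miss it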;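 note: 0% = plate neutral control median and 100% = total signal loss; the record names both 10 and 1 µM as test concentration; the first replicate is given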
RanGTP-Imp inh: disruptors of Ran-importin-beta complex formation – biochemical, FRET, CFP-Ran, YFP-importin-beta, homogeneous, primary screen. inhibition, % (concentration not given with the values). actives 1.1% (n = 300,000). cell-free CFP-Ran/YFP-importin-beta FRET ratio;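 active = most replicates above 15%; inconclusive = exactly half above 15%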;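 note: 0% = DMSO wells and 100% = Ran loaded with GDP instead of GTP; wells of about 40 µL received 100 nL stock; the first replicate is given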
Vif A3G: HIV-1 Vif–A3G interaction blockers – biochemical, TR-FRET, GST-Vif 1-94, biotin-A3G peptide, dose response retest, primary screen (AID 1117319); inhibition, %, or IC50 in µM where a hit was titrated; TR-FRET GST-Vif / biotin-A3G peptide binding; higher % means a stronger effect; test concentration not given here; strong numbers were not always called active; actives 0.57% (n = 260,000);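 active = above the screen mean plus three standard deviations and confirmed in dose response; inconclusive = results disagree or hit not tested in dose response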;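 note: Vif residues 1-94 fused to GST binding biotinylated APOBEC3G peptide 110-148; 0% = full assay without inhibitor and 100% = GST in place of GST-Vif; retest series ran down from 100 µM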
Calb FLC: C. albicans growth modulation with fluconazole. C. albicans CaCi-2 (fluconazole-resistant clinical isolate) + fluconazole, Alamar Blue growth, 48 h. growth inhibition, % (concentration not given with the values). actives 0.57% (n = 300,000). AID 1979;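 active = most replicates above 75%; inconclusive = exactly half above 75%; inactive = most below 75%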;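 note: all wells also contain fluconazole at 8 µg/ml as a sub-toxic cotreatment; 0% = median of DMSO wells and 100% = median of geldanamycin control wells; wells of about 8 µL received 7.5 nL stock; the first replicate is given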
Bfl-1 A1 inh: inhibitors of the anti-apoptotic protein A1, read as caspase activation; caspase activation, % (test concentration not listed); MEF A1-2A-BIM cells, Caspase-Glo 3/7 luminescence, 3 h; percent of clofoctol response, vehicle zero; actives 0.066% (n = 330,000);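 active = over half of replicate activation scores above 10%, or exactly half above 10 with the replicate mean above 10; inconclusive = replicate mean below 10 yet half the replicates above 10; inactive = over half of replicates below 10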;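 note: wells of about 30 µL received 50 nL stock; many hits fall short of the cut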
The depositor's hits bear a star; u = inconclusive; x = no result given. Rows are unselected; about 4.3% have a hit in one of these screens.

entry	molecule	T cruzi inh	LANA-H2B inh	Beta cell apopt	AF4-AF9 inh
1	O=C(CN1C(=O)C(c2ccccc2)Oc2cccnc21)NCc1ccccc1F (stereo not drawn)	0.8	-1.0	x	1.1
2	Cc1ccc2c(CN3CCN(Cc4ccccc4)CC3)cc(=O)oc2c1	58.5*	-0.8	-1.8	1.9
3	CCOc1ccc(C(=O)Nc2ccc3c(c2)OCCO3)cc1OC	14.4	-1.0	2.6	8.6
4	COc1ccccc1NC(=O)Cn1cc(C#N)c2ccccc21	-8.7	-1.0	6.2	x
5	Nc1nc(N2CCOCC2)nc2ccccc12	-16.6	2.3	-3.7	x
6	CC(C)(C)OC(=O)N1CCOCCOCCN(C(=O)OC(C)(C)C)CCOCCOCC1	-14.1	-0.5	3.8	x
7	C/C=C/c1ccc(OCC(=O)OCc2csc(CC(=O)Nc3ccccc3C)n2)c(OC)c1	-2.8	1.9	-2.4	-0.7
8	COc1ccc(C(=O)N2CCN=C2SCc2cccnc2)c(OC)c1	6.2	-1.0	x	u
9	CCOC(=O)N1CCN(C(=O)c2cnc3n(c2=O)CCS3)CC1	7.4	5.3	-8.7	x
10	CC1CC(C)CN(S(=O)(=O)c2cccc(C(=O)N3CCN(c4ccc(F)cc4)CC3)c2)C1 (stereo not drawn)	x	-2.3	1.7	3.7
11	C/C(=C\C(=O)c1ccccc1)Nc1ccc(O)cc1	-16.0	-2.0	21.3	x
12	O=C(Nc1c(F)cc(F)cc1Br)c1cc(S(=O)(=O)N2CCN(c3ccccn3)CC2)ccc1F	24.6	-0.4	5.7	-2.5

entry	RanGTP-Imp inh	Vif A3G	Calb FLC	Bfl-1 A1 inh
1	4.9	28.6%	-5.3	-1.2
2	1.3	-1.0%	12.5	0.1
3	2.2	0.9%	25.2	-0.1
4	0.6	-7.0%	-6.1	-1.8
5	0.8	u	-3.9	-0.5
6	4.2	2.7%	-5.2	-1.1
7	2.1	x	12.4	-0.3
8	-2.0	-2.9%	-2.4	-2.8
9	1.6	70.3%	-2.2	0.9
10	x	x	x	0.5
11	-1.6	u	-2.2	-1.2
12	-1.2	7.2%	-3.2	-0.5

New compounds follow.
entry	molecule	T cruzi inh	LANA-H2B inh	Beta cell apopt	AF4-AF9 inh
13	Cc1ccccc1N1CC(O)(c2cccs2)[N+]2=C1CCCC2 (stereo not drawn)	x	-4.9	-0.6	-2.3
14	O=C(NCc1ccco1)c1ccccc1NS(=O)(=O)c1ccc2c(c1)OCCO2	-4.1	4.5	-4.2	x
15	CCCCNC(=O)COC(=O)CNC(=O)c1cc(Cl)cc([N+](=O)[O-])c1	-6.8	-0.7	0.8	-2.0
16	COc1ccccc1OCC(=O)N1CCCC(Nc2ccc(F)c(F)c2)C1 (stereo not drawn)	9.7	0.6	-11.5	2.7
17	Cc1cc(C)c(N2C(=O)C3C4CC(=O)C(c5ccccc54)C3C2=O)c(C)c1 (stereo not drawn)	-3.6	-1.0	2.1	1.1
18	C=CCNC(=S)NNC(=O)c1cccnc1	-14.2	-1.7	x	0.6
19	O=C(Nc1cccc2nsnc12)c1ccc(-c2cccc(Cl)c2)o1	x	1.7	-6.2	x
20	Cc1nn(-c2ccccc2)c2sc(-c3nnc(SCC(=O)O)o3)cc12	-57.2	5.6	-2.3	4.6
21	Cc1cccc(N=Nc2c(N)n[nH]c2-c2ccc(Cl)cc2)c1	9.9	3.0	-3.3	x
22	COc1ccc(NC(=O)CCC2CCCC2)cc1OC	-0.3	1.8	8.0	x
23	O=C(N/N=C/c1cccc([N+](=O)[O-])c1)C1COc2ccccc2O1 (stereo not drawn)	1.0	-1.2	-3.4	0.1
24	COC(=O)c1ccc(NC(=O)C2C3CCC(C3)C2C(=O)O)cc1 (stereo not drawn)	-19.2	-3.5	x	x

entry	RanGTP-Imp inh	Vif A3G	Calb FLC	Bfl-1 A1 inh
13	x	10.1%	-14.1	0.8
14	0.7	u	-3.6	0.6
15	-2.3	7.6%	32.0	0.8
16	2.7	0.4%	18.5	0.5
17	0.8	-1.6%	0.1	1.3
18	0.0	0.4%	-4.4	0.1
19	x	24.0%	x	-1.3
20	2.3	-4.3%	9.3	0.5
21	-5.5	2.2%	-1.3	-0.8
22	-0.1	6.4%	-8.1	0.2
23	-0.2	x	-7.2	-0.4
24	2.1	5.8%	-4.0	-0.1

Additional structures follow:
entry	molecule	T cruzi inh	LANA-H2B inh	Beta cell apopt	AF4-AF9 inh
25	O=C(CSc1nc2ccccc2c2c1CCCC2)N1CCOCC1	-1.9	6.8	-6.1	-0.5
26	COc1ccc(F)cc1CN1CCN(C(=O)CCC(=O)Nc2nnc(C(C)C)s2)CC1	25.7	-4.0	-12.0	x
27	CSc1ccc(-c2nc(CSCC(=O)NC3CC3)c(C)o2)cc1	-3.8	-5.9	-9.8	-25.1
28	Cc1cccc(C(=O)N/N=C/c2cc(Br)c(Br)o2)c1	-6.7	x	-3.3	x
29	CCCCCOc1ccc(C(=O)CCC(=O)NC(C)c2ccc(S(N)(=O)=O)cc2)cc1 (stereo not drawn)	x	0.7	4.3	4.3
30	COc1ccc(-n2ccc(=O)c(C(=O)O)n2)cc1	1.2	-4.9	-5.5	-3.3
31	Cc1onc(C(=O)Nc2sc3c(c2C#N)CCCC3)c1[N+](=O)[O-]	-18.9	-2.9	2.6	-3.6
32	Cc1cc(=O)[nH]c2c(C)cc(S(=O)(=O)N3CCCCC3)cc12	-1.5	6.6	-3.2	-0.2
33	Cc1ccc(NCc2ccc(Cl)nc2)c(NCc2ccc(Cl)nc2)c1	0.6	-1.0	5.3	13.1
34	O=C(NCc1nnc(SCC(=O)N2CCc3ccccc32)o1)c1cccs1	-13.9	0.5	-2.4	-1.6
35	N#Cc1ccc(Oc2cccc(C(=O)O)c2)cc1C#N	-6.6	2.5	-3.2	x
36	Cc1ccc(OCCC(=O)OC(C)C(=O)Nc2c(C)n(C)n(-c3ccccc3)c2=O)cc1 (stereo not drawn)	3.2	0.3	-7.9	0.0

entry	RanGTP-Imp inh	Vif A3G	Calb FLC	Bfl-1 A1 inh
25	-0.6	x	-19.1	-0.1
26	0.2	1.9%	-5.7	-0.9
27	0.0	x	4.1	0.3
28	0.1	0.7%	19.6	-0.3
29	x	-2.6%	x	0.6
30	1.1	-10.8%	-3.4	1.3
31	u	8.7%	82.0*	-0.3
32	-1.2	4.0%	5.4	-2.6
33	-3.9	-8.3%	-17.5	0.2
34	10.3	1.2%	7.3	0.0
35	-3.7	26.9%	6.7	0.1
36	2.4	-5.3%	5.5	0.0

Random excerpt: 3 records from the list.
entry	molecule	T cruzi inh	LANA-H2B inh	Beta cell apopt	AF4-AF9 inh
17	Cc1cc(C)c(N2C(=O)C3C4CC(=O)C(c5ccccc54)C3C2=O)c(C)c1 (stereo not drawn)	-3.6	-1.0	2.1	1.1
30	COc1ccc(-n2ccc(=O)c(C(=O)O)n2)cc1	1.2	-4.9	-5.5	-3.3
9	CCOC(=O)N1CCN(C(=O)c2cnc3n(c2=O)CCS3)CC1	7.4	5.3	-8.7	x

entry	RanGTP-Imp inh	Vif A3G	Calb FLC	Bfl-1 A1 inh
17	0.8	-1.6%	0.1	1.3
30	1.1	-10.8%	-3.4	1.3
9	1.6	70.3%	-2.2	0.9

Remaining list, next part.
entry	molecule	T cruzi inh	LANA-H2B inh	Beta cell apopt	AF4-AF9 inh
37	O=C1Nc2cc(C(=O)NCCCN3CCCC3)ccc2S/C1=C\c1ccccc1	15.1	0.2	x	16.4
38	Cc1ccc(OCc2cc(C(=O)N3CCN(CC(=O)NC(C)C)CC3)no2)cn1	-14.3	3.7	-3.4	0.8
39	O=C(OCc1nc2ccccc2[n+]([O-])c1C(=O)c1ccccc1)c1cccnc1	-2.6	-2.6	-2.1	4.2
40	N/C(=N\OC(=O)c1ccccc1)c1ccccn1	-15.2	2.9	13.5	-0.8
41	CCS(=O)(=O)Nc1ccc2c(c1)OCO2	-10.7	-1.8	-7.6	-0.8
42	CN(C)CCNc1nc2c(c(=O)[nH]c(=O)n2C)n1CCOc1ccccc1	14.2	-0.8	x	-2.9
43	Cc1ccccc1CC1(CO)CCCN(C(=O)c2ccc(F)cc2)C1 (stereo not drawn)	-1.6	-0.8	2.2	3.0
44	Cc1nc2ccc(C(=O)N(C)CC3CCCN(CCc4ccc(Cl)cc4)C3)cc2[nH]1 (stereo not drawn)	39.9	-5.4	1.0	0.6
45	CCCOc1ccc(C(=O)CCC(=O)OCC(=O)Nc2ccc(Oc3ccccc3)cc2)cc1	-20.4	2.7	-2.4	x
46	CCN(CC)P(=O)(Nc1ccc(Br)cc1)c1c(C)nn(CCC#N)c1NC(=O)c1ccc(Cl)cc1 (stereo not drawn)	8.4	0.8	-6.2	2.2
47	Cn1c(=O)n(Cc2ccccc2)c(=O)c2c1nc1n2CCS1	19.2	7.7	-0.6	x
48	CC(C)[C@H](NC(=O)[C@@H]1Cc2c([nH]c3ccccc23)C2c3ccccc3C(=O)N21)C(=O)NCC1CCCO1 (stereo partly drawn)	7.7	-2.1	3.1	-14.4

entry	RanGTP-Imp inh	Vif A3G	Calb FLC	Bfl-1 A1 inh
37	5.9	x	11.1	-1.7
38	-1.1	x	-12.4	0.0
39	0.4	2.4%	-2.6	1.2
40	4.3	x	3.5	-8.2
41	-0.5	-1.0%	14.7	0.0
42	0.5	-4.3%	-6.2	0.5
43	0.6	-1.0%	-1.9	0.6
44	-0.5	x	2.4	-0.3
45	-3.6	12.4%	-5.6	-0.5
46	2.0	x	u	0.1
47	6.2	0.6%	6.4	-0.2
48	1.7	x	-7.8	0.0

Next records:
entry	molecule	T cruzi inh	LANA-H2B inh	Beta cell apopt	AF4-AF9 inh
49	Cc1occc1C(=O)NCCCc1ccccc1	1.6	13.0	-4.2	x
50	Cc1cccc(-c2n[nH]c(=S)n2/N=C/c2ccco2)c1	-5.6	2.0	0.0	-3.8
51	CCCCn1c(=N)n(CC(O)COc2cccc(C)c2)c2ccccc21 (stereo not drawn)	44.0	0.3	19.9	x
52	CC(=O)Oc1cccc(C(=O)Nc2ccc(NC(=O)c3cccs3)cc2)c1	8.8	-1.1	7.8	-1.0
53	O=C(c1ccc(Cl)c(Cl)c1)N1CCC(O)(CN2CCOCC2)CC1	0.8	0.6	1.4	-1.6
54	O=C(COC(=O)/C=C/c1cccc(F)c1)Nc1ccccc1	-7.8	1.7	-3.2	-3.6
55	O=C(c1cc(F)c(F)cc1Cl)N1CCCCC1	1.2	-6.9	-5.2	x
56	O=C(CN1C2CCCC1CC(NC(=O)C1CCCCC1)C2)Nc1ccccc1C(F)(F)F (stereo not drawn)	3.4	0.4	14.7	2.9

entry	RanGTP-Imp inh	Vif A3G	Calb FLC	Bfl-1 A1 inh
49	4.9	4.2%	0.0	-1.8
50	0.1	-4.1%	13.3	1.0
51	0.3	1.8%	-1.8	0.0
52	0.3	x	21.0	-0.2
53	4.5	-9.2%	-5.2	0.7
54	0.8	8.7%	-14.2	0.1
55	1.4	-1.2%	-9.0	0.8
56	-4.1	1.4%	-13.1	-0.8
